# GLA inh pH 4.5: inhibitors of human alpha-galactosidase A at pH 4.5 | 230,000 tested, under 10 active | purified enzyme, 4-MU-alpha-Gal fluorescence, pH 4.5 | P06280 | activity change, negative = inhibition, % at 105 µM | AID 1467; inconclusive = small, poorly fitted or top-dose-only inhibition, or a rising curve; inactive = flat fitted curve, though single readings scatter; no compound was filed as active;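 further: 0% = full activity with enzyme and -100% = basal without enzyme; dose as in the result columns while the protocol names 77 µM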
# miR-21 reporter: miR-21 reporter, rising signal | HeLa miR-21 FLuc reporter, luciferase, 48 h | Potency, µM (highest dose often 38.3 µM), for inactives: at the top dose reporter change, positive = more light | 340,000 tested, under 10 active; active = well fitted rising curve with a large enough effect; inconclusive = small, poorly fitted or top-dose-only effect; inactive = no such curve, though single readings can be large or run the other way;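 further: % of control where 0% means no effect; miR-21 action dims this reporter so a rising signal means less miR-21 action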
#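 HeLa miR-21-FLuc reporter line, endogenous miR-21; 2000 cells/well in DMEM/10% FBS; compound titration up to ~40uM final, 48 h, 37 degree Celsius; luciferase detection reagent, 15 min lysis, CCD luminescence.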
# Rango-impB inh: inhibitors of Rango-importin beta complex formation. 0.031% of 340,000 active. Rango CFP/YFP FRET sensor + importin beta, 45 min. Q14974. AID 540263. Potency, µM (top dose mostly 92.2 µM), for inactives: at the highest dose inhibition of complex formation; active = rising FRET ratio curve, often small or poorly fitted; inconclusive = mostly compound fluorescence or quenching in the first reads; inactive = flat curves in all reads;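 further: potency means the concentration at half of the fitted maximal effect; 0% = DMSO wells and 100% = buffer wells lacking importin beta; nearly all actives have a fitted effect of over 15% in size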
# Target sequence (Q14974 whole entry, looked up): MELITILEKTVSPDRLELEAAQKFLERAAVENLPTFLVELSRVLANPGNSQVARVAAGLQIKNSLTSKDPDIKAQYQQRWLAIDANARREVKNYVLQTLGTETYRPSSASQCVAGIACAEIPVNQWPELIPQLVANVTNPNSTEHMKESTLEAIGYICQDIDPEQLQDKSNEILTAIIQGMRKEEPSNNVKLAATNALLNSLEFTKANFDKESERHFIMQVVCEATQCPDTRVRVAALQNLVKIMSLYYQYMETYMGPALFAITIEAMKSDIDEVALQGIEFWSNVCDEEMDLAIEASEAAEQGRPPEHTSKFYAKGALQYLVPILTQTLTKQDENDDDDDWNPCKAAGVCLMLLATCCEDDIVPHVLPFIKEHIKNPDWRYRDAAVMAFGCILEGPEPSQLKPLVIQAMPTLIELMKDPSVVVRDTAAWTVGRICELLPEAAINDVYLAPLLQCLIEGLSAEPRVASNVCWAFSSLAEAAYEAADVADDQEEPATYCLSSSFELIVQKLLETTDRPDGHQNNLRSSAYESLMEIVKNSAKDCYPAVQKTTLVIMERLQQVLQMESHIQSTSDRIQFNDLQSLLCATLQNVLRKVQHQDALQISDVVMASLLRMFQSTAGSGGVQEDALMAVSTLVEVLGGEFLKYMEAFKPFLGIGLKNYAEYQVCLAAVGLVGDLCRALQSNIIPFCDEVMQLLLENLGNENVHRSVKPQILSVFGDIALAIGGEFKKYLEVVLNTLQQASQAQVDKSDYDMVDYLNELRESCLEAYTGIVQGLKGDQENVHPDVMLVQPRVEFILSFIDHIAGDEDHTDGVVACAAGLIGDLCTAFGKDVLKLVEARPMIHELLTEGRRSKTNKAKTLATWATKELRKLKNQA
#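 FRET biosensor Rango (snurportin 1 IBB between N-terminal EYFP and C-terminal Cerulean), 50 nM in PBS/1 mM DTT/0.02% Tween-20/0.1% BSA, preincubated 5 min RT with compound; 0.125 microM importin beta added, 45 min RT, CFP/YFP FRET ratio read.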
# Rango dissoc inh: inhibitors of RanGTP-induced Rango-importin beta complex dissociation; O95149+P62826; Biochemical FRET Rango-importin beta, RanGTP-induced dissociation; Potency, µM (series often up to 46.1 µM), for the others: at the highest dose activity change, negative = inhibition; 0.071% of 340,000 active; AID 540253; active means falling FRET ratio curve, often poorly fitted, with flat reads before Ran was added; inconclusive means other falling curves, or compound fluorescence or quenching; inactive means flat or rising ratio curve;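 further: potency means the concentration at half of the fitted maximal effect; % of control where 0% means no effect; nearly all actives have a fitted effect of over 45% in size; -100% = wells without RanGTP and RCC1; the record marks most hits as doubtful in a second field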
#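 Rango (0.1 uM)–importin beta (0.25 uM) complex; RanGTP-RCC1 trigger; 45 min RT; CFP/YFP FRET read.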
# * = called active by the depositor; ? = inconclusive; . = no result given; & = joins results of further samples. These rows are one share of the data; the hit share may differ from the screen's.
Rango dissoc inh | Rango-impB inh | GLA inh pH 4.5 | miR-21 reporter | SMILES
19% | 0.8% | . | . | O=C(CC1SC(N2CCOCC2)=NC1=O)Nc1ccc(Cl)c(C(F)(F)F)c1 (centres undefined)
13% | 0.3% | . | . | CN1CCN(S(=O)(=O)c2cccc(C(=O)Nc3ccc(Br)cc3Br)c2)CC1
14% | -1.4% | 3 | -4% | O=C(Cc1ccc(Br)cc1)OCC(=O)N1CCc2ccccc2C1
-4% | ? | 8 | -14% | CC(C)(C)c1ccc(Cn2nc(CC(=O)O)c3ccccc3c2=O)cc1
-7% | -2.9% | . | 23% | CC(=O)c1cccc(NC(=O)c2ccc(N(C)S(=O)(=O)c3ccc(C)cc3)cc2)c1
3% | 1.4% | . | -10% | CCOc1ccc2oc(C(=O)NNC(=O)c3csc(N4CCOCC4)n3)c(C)c2c1
19% | -0.2% | . | . | Cc1cnc(C(=O)OC(C)C(=O)Nc2ccccc2-c2ccccc2)cn1 (centres undefined)
-15% | 5.9% | 1 | -12% | CCOc1ccc(Cn2nnc(C(=O)Nc3ccc(OC)cc3OC)c2N)cc1
? | ? | -5 | 3% | CCOC(=O)C1CCCc2c1[nH]c1c(C(N)=O)cccc21 (centres undefined)
1% | 0.0% | -7 | -6% | CCC(=O)N1CCC2(CC1)Oc1ccc(Cl)cc1C(=O)C21CC(c2cccnc2)=NO1 (centres undefined)
0% | -0.2% | -5 | 1% | O=C(Cn1cnc2c(nnn2-c2ccccc2)c1=O)N1CCOCC1
22% | -3.9% | ? | 6% | CCS(=O)(=O)Nc1ccc(C2=NN(C(C)=O)C(c3cccs3)C2)cc1 (centres undefined)
-4% | -5.4% | -13 | -2% | Cc1cccc(-n2c(C)cc(/C=N/NC(N)=S)c2C)c1
31% | -1.1% | 2 | 1% | COc1ccc(Cl)cc1NC(=O)c1[nH]nc(OC)c1[N+](=O)[O-]
8% | 0.2% | . | . | O=C(NCCS(=O)(=O)N1CCN(c2ccc(F)cc2)CC1)c1ccc2c(c1)OCO2
9% | -0.7% | ? | 3% | Cc1ccc(-c2cc(C(F)F)n3ncc(C(=O)N4CCN(c5ccccn5)CC4)c3n2)cc1
-12% | -1.0% | 3 | -11% | O=S(=O)(c1ccccc1)c1nc(-c2ccco2)oc1NCCCN1CCOCC1
6% | 0.4% | 3 | -3% | COc1ccc(S(=O)(=O)NC(CC(=O)NCC2CCCO2)c2ccco2)cc1 (centres undefined)
17% | -1.9% | . | . | O=C(NCc1cccnc1)c1cccc(S(=O)(=O)NCc2ccccc2)c1
-14% | 0.0% | 0 | -1% | CN(c1ccc(C(=O)NC2CC3CCC2C3)cc1)S(C)(=O)=O (centres undefined)

# Additional structures follow.
Rango dissoc inh | Rango-impB inh | GLA inh pH 4.5 | miR-21 reporter | SMILES
22% | 0.8% | . | . | CCCn1c(N)c(C(=O)CSc2nnc(N)s2)c(=O)[nH]c1=O
2% | 0.4% | -5 | 16% | CCC(=O)Nc1nc2ccccc2n1Cc1ccccc1C
2% | 4.5% | 5 | -12% | Cc1ccc(C2CC(c3ccco3)n3ncnc3N2)cc1 (centres undefined)
8% | -0.3% | . | . | O=C(N/N=C/c1ccc(OC(=O)c2ccco2)cc1)c1ccc[n+]([O-])c1
13%&0% | -0.8%&-3.5% | 4 | -10% | CS/C(=N\S(=O)(=O)c1cccs1)Nc1ccc(Br)cc1F
18% | -0.8% | . | . | O=C(COC(=O)Cc1ccc(Cl)c(Cl)c1)NCc1ccco1
-20% | ? | -3 | -1% | CCN(CCO)c1ccc(-n2c(N)c(C(=O)OC)c3nc4ccccc4nc32)cc1
16% | 0.1% | . | 2% | O=C(CNCc1ccccc1Cl)Nc1ccc(C(=O)N2CCCCC2)cc1
? | ? | . | -2% | Cc1ccc(NC(=O)NNC(=O)c2cc3ccccc3cc2O)cc1C
? | 0.8% | -5 | 0% | Cc1cc(SCC(=O)N/N=C/c2ccco2)nc2ccccc12
2% | 2.5% | 3 | -4% | O=C1NC2CCc3nc4ccccc4c(=O)n3C2=Nc2ccccc21 (centres undefined)
-18% | ? | 2 | 16% | COC(=O)C1=C(CSCc2ccco2)NC(=O)NC1c1cc(C)ccc1C (centres undefined)
2% | 0.6% | -26 | 2% | COc1ccccc1NC(=O)CSc1nnc(-c2ccoc2C)n1CC1CCCO1 (centres undefined)
-5% | 0.1% | . | -2% | O=C(CNC(=O)c1ccc(Br)o1)NCc1ccccc1Cl
-21% | -2.9% | 8 | 5% | CCOc1ccc(C/C(O)=C2\C(=O)CC(C)(C)CC2=NCC(=O)O)cc1OCC
9% | -0.7% | -4&-17 | -39% | COc1ccc(-c2cc(=O)c3cc(C)ccc3[nH]2)cc1
-11% | -1.4% | . | 1% | CN(C)S(=O)(=O)c1ccc(S(=O)(=O)NCCN2CCOCC2)cc1
2% | -4.6% | -4 | -2% | Cc1cc(C)cc(C(=O)n2cnnc2N)c1
0% | 4.3% | 3 | -25% | O=C(NCCc1ccccc1)c1cc(S(=O)(=O)N2CCOCC2)ccc1F
0% | 1.5% | -3 | -5% | COc1cccc(-c2nc(CS(=O)CC(=O)NC3CC3)c(C)o2)c1 (centres undefined)

# Remaining list, next part.
Rango dissoc inh | Rango-impB inh | GLA inh pH 4.5 | miR-21 reporter | SMILES
-12% | ? | 8 | -22% | CCOc1ccc(Nc2nc3ccccc3n3nnnc23)cc1
2% | 2.1% | -7 | -4% | C/C=C/c1ccc(OCCCCN2CCC(C)CC2)c(OC)c1
-1% | -2.2% | 8 | -1% | N#Cc1ccc(-c2csc(NC(=O)c3ccc(S(=O)(=O)N4CCc5ccccc5C4)cc3)n2)cc1
7% | 0.1% | 2 | -5% | O=C(CSc1nnnn1C1CCCCC1)Nc1ccccc1F
21% | -2.3% | 6 | -52% | CCC(=O)Nc1cccc(-c2cc3ccccc3oc2=O)c1
8% | -5.1% | 0 | -4% | O=C(NC(=S)Nc1ccccc1O)c1ccc(-c2ccc(Cl)cc2)o1
1% | -2.0% | -12 | -1% | CCN1CCN(CC(=O)Nc2ccccc2)C(=O)C1=O
17% | 3.1% | . | . | COc1ccc(S(=O)(=O)Nc2cc(C)on2)cc1NC(C)=O
11% | -2.4% | 1 | 0% | COc1ccc(-c2n[nH]c(=S)n2-c2ccc(C)cc2)cc1
-2% | 0.3% | . | 6% | Clc1cccc(-c2sc(Nc3ccccc3)n[n+]2-c2ccccc2)c1Cl
? | ? | 4 | -1% | Cc1noc(/C=C/N(C)C)c1S(=O)(=O)NC1CCCCC1
-7% | 0.6% | . | -4% | Cc1ccc(N(CC(=O)NC(C)(C)C)C(=O)CCC(=O)Nc2nccs2)c(C)c1
? | ? | 0 | 0% | O=C(c1cnn2c(C(F)(F)F)cc(-c3ccc4c(c3)OCO4)nc12)N1CCCC1
. | . | 1 | 1% | COc1ccc(C(=O)Nc2ccc(N3CCN(C(C)=O)CC3)cc2)cc1[N+](=O)[O-]
9% | 3.7% | 5 | -46% | CCn1ccc(C(=O)Nc2ccccc2SC)n1
0% | -0.2% | -6 | . | C=C1c2cccc(OC)c2O[C@H](C(=O)OCC)[C@@H]1CC(CC)CCCC (some centres undefined)
1% | 0.1% | . | . | CC(=O)Nc1ccc2c(c1)Cc1c(F)cccc1-2
-6% | -1.3% | -2 | 7% | Fc1cccc(C[n+]2csc3ccccc32)c1
? | ? | -2 | -4% | Oc1ccccc1/C=N/c1c(-c2ccco2)nc2ccccn12
27% | -0.9% | . | . | CN(C)S(=O)(=O)c1ccc(N2CCCC2)c(C(=O)NNC(=O)COc2cccc(F)c2)c1

# Looked up above:
# Result for CCn1ccc(C(=O)Nc2ccccc2SC)n1 in miR-21 reporter: -46%
# Result for Fc1cccc(C[n+]2csc3ccccc32)c1 in GLA inh pH 4.5: -2

# Back to the main list, repeating the 2 entries before the break.
Rango dissoc inh | Rango-impB inh | GLA inh pH 4.5 | miR-21 reporter | SMILES
? | ? | -2 | -4% | Oc1ccccc1/C=N/c1c(-c2ccco2)nc2ccccn12
27% | -0.9% | . | . | CN(C)S(=O)(=O)c1ccc(N2CCCC2)c(C(=O)NNC(=O)COc2cccc(F)c2)c1
-4% | ? | -6 | 6% | O=c1[nH][nH]c2c(N=Cc3ccccc3O)ccc(F)c12
13% | -0.1% | . | 1% | Cc1ccc(S(=O)(=O)NC(=NC(Cc2ccccc2)C(=O)O)c2ccccc2)cc1 (centres undefined)
10% | 1.4% | -1 | -4% | CCCC(=O)Nc1ccc(-c2cnc(-c3ccc(NC(=O)CCC)cc3)nc2)cc1
0% | -0.7% | -8 | -23% | O=C(CSCc1c(Cl)cccc1Cl)Nc1nccs1
-6% | -0.6% | . | . | C[C@H](CO)N1C[C@H](C)[C@@H](CN(C)S(=O)(=O)c2cccs2)Oc2ccc(NS(=O)(=O)c3ccc(F)cc3)cc2C1=O
11% | 1.6% | . | . | CCN(c1ccccc1)S(=O)(=O)c1ccc(OC)c(NC(=O)CCc2nc3ccccc3c(=O)[nH]2)c1
0% | -1.0% | 1 | -7% | Cc1cc(C(=O)CSc2nnc(-c3ccccc3F)o2)c(C)n1Cc1cccs1
1% | -4.3% | -13 | 1% | Cc1cc(C)c2oc(C(=O)Nc3nnc(C(C)C)s3)cc(=O)c2c1
-1% | -2.7% | . | 7% | Cc1cc(C)c(C(=O)N(C)C2CCCN(Cc3ccccc3F)C2)o1 (centres undefined)
-5% | -0.2% | -3 | -21% | CCN1CCN(C(=O)c2cc3cc4cc(OC)ccc4nc3s2)CC1
-5% | 0.6% | 0 | -4% | Cc1cc(=O)n2nc(N3CCCC3C(=O)NCCCN3CCCCC3)sc2n1 (centres undefined)
-15% | -2.8% | 0 | -3% | CC(C)Cc1nnc(NC(=O)CSc2nc(=O)cc(N)n2-c2ccccc2)s1
18% | -3.9% | . | 0%&2% | CCOc1ccc(NC(=O)CCNS(=O)(=O)c2ccc3c(c2)oc(=O)n3C)cc1

# Quoted at random: four compounds from above.
Rango dissoc inh | Rango-impB inh | GLA inh pH 4.5 | miR-21 reporter | SMILES
18% | -3.9% | . | 0%&2% | CCOc1ccc(NC(=O)CCNS(=O)(=O)c2ccc3c(c2)oc(=O)n3C)cc1
0% | -0.7% | -8 | -23% | O=C(CSCc1c(Cl)cccc1Cl)Nc1nccs1
-1% | -2.7% | . | 7% | Cc1cc(C)c(C(=O)N(C)C2CCCN(Cc3ccccc3F)C2)o1 (centres undefined)
-6% | -0.6% | . | . | C[C@H](CO)N1C[C@H](C)[C@@H](CN(C)S(=O)(=O)c2cccs2)Oc2ccc(NS(=O)(=O)c3ccc(F)cc3)cc2C1=O

# Grouped by structure: the entries above containing a CF3 group.
Rango dissoc inh | Rango-impB inh | GLA inh pH 4.5 | miR-21 reporter | SMILES
19% | 0.8% | . | . | O=C(CC1SC(N2CCOCC2)=NC1=O)Nc1ccc(Cl)c(C(F)(F)F)c1 (centres undefined)
? | ? | 0 | 0% | O=C(c1cnn2c(C(F)(F)F)cc(-c3ccc4c(c3)OCO4)nc12)N1CCCC1

# Bioassay records from PubChem.
